Source: PubChem BioAssay
AF4-AF9 inh = MLL-AF4/AF9 protein interaction inhibition; actives 0.47% (n = 350,000); AlphaScreen, biotin-AF4 peptide binding to FLAG-AF9; inhibition, % at 10 µM;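 active means every replicate reaching a set inhibition limit, whatever the replicate mean, cut at about 25% in these data; inconclusive means mean inhibition reaches that limit but some replicates miss it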;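 further: 0% = plate neutral control median and 100% = total signal loss; the record names both 10 and 1 µM as test concentration; the first replicate is given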
Vif TR-FRET = inhibitors of Vif binding to APOBEC3G peptide, primary screen, biochemical, TR-FRET, GST-Vif 1-94, biotin-A3G peptide, dose response retest (AID 1117319) | inhibition, %; hits with a dose series show IC50 in µM | actives 0.57% (n = 260,000) | TR-FRET GST-Vif / biotin-A3G peptide binding; higher % means a stronger effect; test concentration not given here; strong numbers were not always called active;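 active means above the screen mean plus three standard deviations and confirmed in dose response; inconclusive means results disagree or hit not tested in dose response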;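 further: Vif residues 1-94 fused to GST binding biotinylated APOBEC3G peptide 110-148; 0% = full assay without inhibitor and 100% = GST in place of GST-Vif; retest series ran down from 100 µM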
E coli growth = blocks Escherichia coli growth; OD600, 23 h; active compounds read low; OD600 absorbance (test concentration not listed); AID 1053175; actives 0.21% (n = 330,000);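 active means OD600 absorbance below the run mean of sample wells minus 3.6 SD, in any replicate, cut at about 0.56 in these data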;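 further: stock transfer was 300 nL into about 60 µL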
ALR inh = inhibitors of human sulfhydryl oxidase ALR | P55789 | purified ALR, DTT oxidation, H2O2 HRP-luminol luminescence | inhibition, % (no concentration beside the values) | actives 3.8% (n = 290,000) | AID 485317;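 active means mean and each replicate at 75% or more; inconclusive means only one of the two met; inactive means neither met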;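 further: stock transfer was 7.5 nL into about 7.5 µL; 0% = neutral wells and 100% = wells with inactivated enzyme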
Target sequence (P55789 whole entry, looked up): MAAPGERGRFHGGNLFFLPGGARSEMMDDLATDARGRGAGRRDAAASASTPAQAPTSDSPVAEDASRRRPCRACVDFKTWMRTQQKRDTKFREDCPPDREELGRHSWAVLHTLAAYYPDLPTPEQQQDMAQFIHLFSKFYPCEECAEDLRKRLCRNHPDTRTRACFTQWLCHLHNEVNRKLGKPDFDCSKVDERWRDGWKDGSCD
FGF22 binding = shifts melting point of recombinant human FGF22; Q9HCT0; recombinant FGF22 thermal shift, SYPRO orange fluorescence; percent of sucrose octasulfate shift, DMSO zero; calls only at 9.99 µM; actives 1.5% (n = 340,000); AID 651658;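 active means melting point raised past a set limit in the mean and every replicate; inconclusive means no clear call; three in four hits are not shown here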
Target sequence (Q9HCT0 whole entry, looked up): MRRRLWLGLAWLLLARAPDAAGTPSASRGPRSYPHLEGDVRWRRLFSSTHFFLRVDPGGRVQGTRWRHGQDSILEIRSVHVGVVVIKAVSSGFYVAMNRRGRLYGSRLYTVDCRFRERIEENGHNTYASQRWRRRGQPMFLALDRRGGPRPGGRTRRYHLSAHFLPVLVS
rRNA inh HTS = inhibits bacterial ribosomal RNA function over humanized ribosomes; actives 1.6% (n = 350,000); E. coli WT GFP vs humanized-ribosome RFP mutants, fluorescence, 24 h; active compounds read low; DMSO median 0, no signal -100; GFP signal change (wild-type ribosome), % (no concentration beside the values);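 active means significant combined selectivity score with lowered wild-type GFP, culture density cut under 30%, mutant RFP and density less affected; inactive means any of these conditions unmet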; further: one replicate is shown; some compounds called inactive have numbers as strong as hits
HNF4A DNA FP = change in binding of human HNF4 alpha to DNA; P41235; HNF4a-FITC DNA binding, fluorescence polarization, 1 h; activity change, % at 10 µM; actives 0.3% (n = 360,000); in the data active means activity change above about 30%, passing the limit was not always enough;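 further: controls were the assay level and a saturating level of protein; the project sought stronger binding though the title names inhibitors; some compounds called inactive have numbers as strong as hits; positive values seem to mean higher polarization but the record does not say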
Target sequence (P41235 whole entry, looked up): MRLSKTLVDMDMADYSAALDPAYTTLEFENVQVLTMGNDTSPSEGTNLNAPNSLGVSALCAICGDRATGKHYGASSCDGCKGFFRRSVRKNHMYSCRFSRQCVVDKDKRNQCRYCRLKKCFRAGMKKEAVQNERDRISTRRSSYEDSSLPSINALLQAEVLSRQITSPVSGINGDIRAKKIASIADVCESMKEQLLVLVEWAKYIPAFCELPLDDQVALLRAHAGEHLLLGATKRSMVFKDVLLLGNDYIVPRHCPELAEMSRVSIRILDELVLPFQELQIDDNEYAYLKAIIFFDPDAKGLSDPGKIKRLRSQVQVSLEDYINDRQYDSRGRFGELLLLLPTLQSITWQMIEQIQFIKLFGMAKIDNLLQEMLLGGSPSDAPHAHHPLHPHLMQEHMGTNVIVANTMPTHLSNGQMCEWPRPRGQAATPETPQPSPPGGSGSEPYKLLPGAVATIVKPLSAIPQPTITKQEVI
rRNA inh HTS OD600 = recorded beside rRNA inh HTS, whose call it bears; OD600 change, %; measured here: OD600 growth;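 optical density of the mix in the first replicate; 0 = DMSO median and -100 = no signal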
rRNA inh HTS RFP = further read-out of rRNA inh HTS, marked with its call; RFP signal change, %; measured here: RFP humanized mutant strains;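 first replicate; 0 = DMSO median and -100 = no signal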
An asterisk follows results filed as active; i = inactive; ? = inconclusive; / = not tested or not shown; & = joins results of further samples. This is a subset; the hit share may differ from the screen's.

SMILES	AF4-AF9 inh	Vif TR-FRET	E coli growth	ALR inh	FGF22 binding	rRNA inh HTS	rRNA inh HTS OD600	rRNA inh HTS RFP	HNF4A DNA FP
COc1ccc(CNC(=O)Nc2nc(C(N)CCc3ccccc3)cs2)cc1 (centres undefined)	15.6	/	/	/	i	1.8	-10.3	6.9	4.2
O=C(CSc1nncn1-c1ccccc1)Nc1c(F)cccc1F	-1.1	/	0.697	1.0	i	2.2	8.8	1.2	-1.9
Cc1cc(C)cc(NC(=O)C(=O)NCCc2c[nH]c3ccccc23)c1	-44.2	-19.2%	0.722	-0.4	i	-5.4	-18.5	-12.7	-2.1
CC(C)CN1CC(=O)N2C(c3ccccc3)c3[nH]c4ccccc4c3C[C@H]2C1=O (some centres undefined)	3.5	-0.8%	0.674	-13.2	i	-8.6	1.9	2.7	2.9
CCOC(=O)C1(C)CCCN1C(=O)c1ccc(OC)cc1 (centres undefined)	-2.4	/	/	/	i	0.6	4.6	-2.4	-0.9
CN(Cc1ccccc1)c1ccc(S(=O)(=O)N2CCC(C(=O)O)CC2)cc1[N+](=O)[O-]	-2.6	/	0.696	-4.2	/	-4.1	-9.9	-3.8	0.8
CN1CCN(C(=O)[C@H]2[C@H](CO)[C@H]3Cn4c(cccc4=O)[C@H]3N2Cc2ccccc2F)CC1	0.5	/	/	/	i	-1.1	0.9	-3.2	/
Cc1nn(-c2ccccc2)c2c1C(c1ccc(F)cc1F)C(C#N)=C(N)O2 (centres undefined)	/	9.4%	0.684	-1.0	/	/	/	/	1.6
CCCCn1c2c(c(=O)n(C)c1=O)C(CC(=O)OCC(=O)Nc1cccc(C(F)(F)F)c1)C(=O)N2 (centres undefined)	/	5.2%&0.8%	0.727	13.3	/	/	/	/	2.5
O=C1CCC2S/C(=C/Nc3ccc(C(F)(F)F)cc3)C(=O)N12 (centres undefined)	-0.4	10.7%	0.634	67.9	i	17.3	17.5	-2.2	2.1
COc1ccc(CCNCc2ccccc2N2CCCC2)cc1	0.9	-4.4%	0.66	-0.1	i	7.5	2.2	-0.9	-2.8
Cc1cccc(C)c1NC(=O)CNC(=O)c1ccc(S(=O)(=O)NCc2ccco2)cc1	0.1	-0.3%	0.702	-7.4	i	13.5	5.8	-0.8	0.8
COc1ccc(NC(=O)Nc2cccc3c2O[C@@H](CN(C)Cc2ccc(-c4ccccc4)cc2)[C@@H](C)CN([C@@H](C)CO)C3=O)cc1	4.5	/	/	/	i	-0.4	-6.6	-1.0	/
O=C(C[C@H]1CC[C@@H]2[C@H](COC[C@@H](O)CN2S(=O)(=O)c2ccccc2)O1)Nc1ccc(-c2ccccc2)cc1	-0.5	/	/	/	i	4.3	-25.3	14.0	/
CC(C)(C)c1ccc(OCC(=O)NNC(=O)C2CCCO2)cc1 (centres undefined)	-2.1	/	0.694	-3.8	/	15.8	4.9	1.3	0.6
CCCCC(CC)C(=O)NCC(C)NC(=O)C(CC)CCCC (centres undefined)	/	0.6%	0.707	/	/	/	/	/	-2.4
CS(=O)(=O)NN1C(=O)c2ccccc2NC1c1cccc(O)c1 (centres undefined)	-1.2	27.5%	0.714	-0.1	i	9.3	14.7	-0.3	-5.8
O=C1CCc2cc(NS(=O)(=O)c3cc(F)ccc3F)cc3c2N1CC3	2.0	2.5%	0.674	0.8	i	0.7	-0.3	-0.3	6.1
Cc1cccc(N2CCN(C(=O)C(Cc3ccccc3)NC(N)=O)CC2)c1C (centres undefined)	6.5	-8.7%	0.688	4.4	i	-17.9	-24.8	-8.5	-3.0
CN(C)c1ccc(C=C(C#N)C(=O)c2ccccc2)cc1Br	-1.2	/	/	/	i	6.5	-7.7	-2.6	9.1

2 compounds picked at random from the list so far, as already listed:
SMILES	AF4-AF9 inh	Vif TR-FRET	E coli growth	ALR inh	FGF22 binding	rRNA inh HTS	rRNA inh HTS OD600	rRNA inh HTS RFP	HNF4A DNA FP
CS(=O)(=O)NN1C(=O)c2ccccc2NC1c1cccc(O)c1 (centres undefined)	-1.2	27.5%	0.714	-0.1	i	9.3	14.7	-0.3	-5.8
CC(C)(C)c1ccc(OCC(=O)NNC(=O)C2CCCO2)cc1 (centres undefined)	-2.1	/	0.694	-3.8	/	15.8	4.9	1.3	0.6

New compounds follow:
SMILES	AF4-AF9 inh	Vif TR-FRET	E coli growth	ALR inh	FGF22 binding	rRNA inh HTS	rRNA inh HTS OD600	rRNA inh HTS RFP	HNF4A DNA FP
C=CCN(C(=O)CCC(=O)Nc1cc(C)on1)C(C(=O)NC1CCCC1)c1cccnc1 (centres undefined)	/	-8.3%	0.699	-14.4	/	/	/	/	-1.0
C[C@@H](NC(=O)C[C@H]1C=C[C@@H](NC(=O)CN2CCOCC2)[C@H](CO)O1)c1ccccc1	-1.0	/	/	/	i	3.8	2.5	-0.8	/
COc1ccc(NC(=O)c2ccccc2[N+](=O)[O-])cc1	/	/	0.623	-2.0	/	/	/	/	0.8
COc1ccc(CCN2C(=O)CCC2(C)c2nnnn2Cc2ccccc2)cc1OC (centres undefined)	2.7	/	/	/	i	-7.1	1.5	-0.1	-3.3
COc1ccc(Cl)cc1NC(=S)N1CCC(c2ccc(C)cc2)C1 (centres undefined)	-29.3	-5.5%	0.69	/	i	-8.3	-9.1	-13.5	-1.6
CCCNC(=O)N1CCN(S(=O)(=O)c2ccc3c(c2)OCCO3)CC1	-1.2	/	0.716	-14.9	i	8.4	16.9	0.0	-1.6
COc1ccc(OC)c(NC(=O)COC(=O)COc2ccc(Nc3ccccc3)cc2)c1	2.1	-4.1%	0.698	-9.6	/	/	/	/	2.4
O=C(Cc1ccc(S(=O)(=O)N2CCCC2)s1)N1CCOCC1	/	2.2%	0.692	7.3	/	/	/	/	-1.6
Cc1nc2ccccn2c1-c1csc(Nc2ccc(C(=O)O)cc2)n1	-1.0	-2.1%	0.703	1.7	i	0.6	-4.6	2.4	-3.0
C=CCn1c(COc2cc(C)ccc2C(C)C)nnc1SCC(=O)c1c(N)n(C)c(=O)n(C)c1=O	0.8	/	0.697	-12.9	/	9.5	13.7	0.4	-0.2
CC(C)Cn1c(N)c(C(=O)COC(=O)c2cnc(Cl)c(Cl)c2)c(=O)n(C)c1=O	-8.7	2.6%	0.66	-1.9	i	-48.7	-72.9	-16.9	-11.4
C[C@@H]1CN([C@H](C)CO)C(=O)c2cc(NC(=O)Cc3ccccc3)ccc2O[C@@H]1CN(C)Cc1ccc(C(F)(F)F)cc1	4.5	/	/	/	i	-1.4	-36.8	5.6	/
CCN1CCN(C(c2cccc(OC)c2OC)c2nnnn2Cc2ccco2)CC1 (centres undefined)	-1.9	9.3%	0.664	-15.3	i	11.1	18.4	3.0	1.4
CCCn1c(C(C)NS(=O)(=O)c2ccccc2)n[nH]c1=S (centres undefined)	-2.6	/	0.685	36.9	i	-8.5	-2.6	-4.8	6.1
CNC(=O)COC(=O)/C=C/c1cn(-c2ccccc2)nc1-c1ccc2c(c1)OCCO2	0.7	-9.8%	0.707	62.5	i	10.2	13.9	4.1	-1.1
O=C(CSc1nccn1Cc1ccc(F)cc1)NC1CCCCC1	0.0	-1.5%	/	/	i	-2.8	-21.1	-3.1	-0.6
CCCCN1C[C@H](c2ccc(OC)cc2)[C@@H](CC(=O)Nc2ccc(Br)cc2)C1=O	-0.7	/	/	/	i	-7.0	-39.6	3.8	2.5
CO[C@H]1CN(C)C(=O)c2cc(NC(=O)c3ccccc3)ccc2OC[C@@H](C)NC[C@@H]1C	-5.7	/	/	/	i	-4.1	0.7	2.1	/
C/C=C/c1ccc([C@H]2[C@@H](CO)N(C(=O)COC)[C@H]2CNC(=O)CC)cc1	-1.4	/	/	/	i	3.0	18.8	-1.4	/
CN1CCN(C(=O)C[C@H]2CC[C@@H]3[C@H](COC[C@@H](O)CN3C(=O)Cc3ccccc3)O2)CC1	2.8	/	/	/	i	0.3	7.2	-2.5	/
CS(=O)(=O)N(CC(=O)N1CCCC1)c1ccccc1Br	3.5	/	0.691	-13.8	i	1.5	9.1	-2.3	-0.3
CC12C(=O)N(CCC(=O)O)C(=O)C1C1C=CC2C1 (centres undefined)	/	9.8%	0.755	0.0	/	/	/	/	-1.0
O=C(CSc1nc2ccccc2o1)c1cc2ccccc2oc1=O	/	?	0.737	-4.1	/	/	/	/	-0.1
CCOc1ccc(OCC)c(-c2c(=O)n(OCc3ccccc3C(=O)OC)c3ccccc3[n+]2[O-])c1	/	0.9%	0.722	-0.8	/	/	/	/	1.4
O=C(NN=Cc1ccc(F)cc1)c1ccccc1NS(=O)(=O)c1cccs1	1.4	/	0.65	/	i	-12.4	-11.8	0.1	3.2
COc1ccc(CCN2C(=O)CC(N3CCOCC3)C2=O)cc1OC (centres undefined)	/	6.4%	0.773	/	/	/	/	/	-0.8
O=C(Oc1ccc(NC(=O)c2cc3c(cc2Br)OCO3)cc1)c1ccccc1	-0.4	4.5%	0.734	-14.6	i	3.8	8.7	-1.7	2.6
C[C@@H]1CN([C@H](C)CO)C(=O)c2cccc(NC(=O)Nc3ccc4c(c3)OCO4)c2O[C@@H]1CN(C)C(=O)Nc1ccc2c(c1)OCO2	7.6	/	/	/	i	-18.6*	4.6*	-0.3*	/
COc1cccc(-c2nn(-c3ccc(C)cc3)cc2C(=O)N(C)CC(=O)Nc2cccc(F)c2)c1	-1.6	13.0%	0.729	0.2	i	/	/	/	-0.4
CC(C)Cc1c(O)nc(SCC(=O)Nc2ccc3c(c2)CCC3)[nH]c1=O	-31.5	-1.1%	0.676	98.7*	i	-1.6	-4.1	-1.5	2.2
O=C(NC(Cc1ccccc1)C(=O)O)C1CCCCC1 (centres undefined)	3.8	/	0.705	-3.4	i	10.0	2.6	-5.9	4.1
CCOc1c(Br)cc(CNc2ccc3c(c2)OCCO3)cc1OC	/	11.3%	0.675	47.2	/	/	/	/	2.2
C[C@H](CO)N1C[C@H](C)[C@H](CN(C)C(=O)Nc2cccc3ccccc23)Oc2ncc(Br)cc2C1=O	0.1&0.8	/	/	/	i	-8.5	-17.9	3.4	/
Cc1ccc(S(=O)(=O)N2CCC(C(=O)OC(C)C(=O)NC3CCCCC3C)CC2)cc1C (centres undefined)	-16.8	-2.2%	0.711	-3.0	i	-5.8	-22.6	-2.2	-2.3
C[C@H](CO)N1C[C@H](C)[C@H](CN(C)S(=O)(=O)c2ccc(F)cc2)Oc2ccc(NC(=O)Nc3cccc4ccccc34)cc2C1=O	0.9	/	/	/	i	-0.2	0.5	-2.3	/
CCOc1ccccc1NS(=O)(=O)c1c(C)noc1C	/	30.4%	0.71	-8.0	/	/	/	/	-1.0
C[C@@H]1CN([C@H](C)CO)C(=O)c2cccc(NC(=O)Nc3ccc4c(c3)OCO4)c2O[C@@H]1CN(C)S(=O)(=O)c1ccccc1	5.6	/	/	/	i	-0.6	-5.0	-0.7	/
Cc1ccccc1NC(=O)N1CCN(S(=O)(=O)c2ccccc2)CC1	-3.1	-0.2%	0.654	-1.7	/	7.2	11.1	0.8	-2.4
CC1CCCCN1C(=O)CSc1nc(C2CC2)nc2c1cnn2-c1ccccc1 (centres undefined)	/	5.2%	0.671	-4.5	/	/	/	/	0.0
Cc1ccc(CNC(=O)c2cc3c(=O)n4ccccc4nc3n(CC3CCCO3)c2=N)cc1 (centres undefined)	/	4.3%	0.707	-6.0	/	/	/	/	5.0
CNC(=O)C[C@@H]1CC[C@H]2[C@H](COc3ccc(NC(=O)Nc4ccccc4F)cc3C(=O)N2C)O1	-1.1	/	/	/	i	-0.7	-7.1	3.6	/
